A1 inh – caspase 3/7 activation in MEF A1-2A-BIM cells, primary screen, A1 inhibitor project, cell-based, luminescence, HTS. AID 2462, 2010. caspase activation, % (concentration not given with the values). Caspase-Glo 3/7 luminescence, 3 h; percent of clofoctol response, vehicle zero. actives 0.066% (n = 330,000);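 active = over half of replicate activation scores above 10%, or exactly half above 10 with the replicate mean above 10; inconclusive = replicate mean below 10 yet half the replicates above 10; inactive = over half of replicates below 10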;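 also: wells of about 30 µL received 50 nL stock; many hits fall short of the cut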
T cruzi repl – inhibitors of intracellular T. cruzi growth, primary screen, luminescence, NIH3T3 host cells. T. cruzi beta-gal in NIH3T3, 90 h. inhibition, % (concentration not given with the values). actives 1.4% (n = 300,000);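 active = mean inhibition across valid replicates above about 55%, limit read from the data; inconclusive = mean below that limit but half or more replicates reach it; inactive = mean below it, under half of replicates reach it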;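 also: signal also drops with host cell toxicity which is not excluded here; 0% = plate median of DMSO wells and 100% = zero luminescence signal; higher percent means less beta-gal luminescence so fewer parasites; stock transfer was 50 nL into about 50 µL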
Vif TR-FRET – inhibitors of Vif binding to APOBEC3G peptide, primary screen, biochemical, TR-FRET, GST-Vif 1-94, biotin-A3G peptide, dose response retest (AID 1117319); TR-FRET GST-Vif / biotin-A3G peptide binding; higher % means a stronger effect; test concentration not given here; strong numbers were not always called active; inhibition, %, or IC50 in µM where a hit was titrated; actives 0.57% (n = 260,000);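 active = above the screen mean plus three standard deviations and confirmed in dose response; inconclusive = results disagree or hit not tested in dose response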;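 also: Vif residues 1-94 fused to GST binding biotinylated APOBEC3G peptide 110-148; 0% = full assay without inhibitor and 100% = GST in place of GST-Vif; retest series ran down from 100 µM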
Beta apoptosis – inhibitors of cytokine-induced beta cell apoptosis, primary screen, luminescence | actives 0.8% (n = 300,000) | AID 435005, 2010 | INS-1E cytokine-induced death, ATP luminescence, 48 h; percent of positive-control rescue, neutral wells zero | protection from apoptosis, % (test concentration not listed);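 active = all replicates at 75% or more, or half of them and the mean; inconclusive = half reach 75% but not the mean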;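 also: 0% = cytokine-treated negative control wells and 100% = positive control rescue; higher means more ATP so stronger rescue from cytokine killing; wells of about 40 µL received 100 nL stock; the first replicate is given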
MLL AF4-AF9 inh – inhibitors of AF4 peptide binding to AF9, primary screen, biochemical, AlphaScreen, biotin-AF4 peptide, FLAG-AF9, single point; Protein AF-9 (Homo sapiens), P42568; inhibition, % at 10 µM; actives 0.47% (n = 350,000); AID 651704, 2012;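 active = every replicate reaching a set inhibition limit, whatever the replicate mean, cut at about 25% in these data; inconclusive = mean inhibition reaches that limit but some replicates miss it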;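 also: 0% = plate neutral control median and 100% = total signal loss; the record names both 10 and 1 µM as test concentration; the first replicate is given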
Target sequence (P42568 whole entry, looked up): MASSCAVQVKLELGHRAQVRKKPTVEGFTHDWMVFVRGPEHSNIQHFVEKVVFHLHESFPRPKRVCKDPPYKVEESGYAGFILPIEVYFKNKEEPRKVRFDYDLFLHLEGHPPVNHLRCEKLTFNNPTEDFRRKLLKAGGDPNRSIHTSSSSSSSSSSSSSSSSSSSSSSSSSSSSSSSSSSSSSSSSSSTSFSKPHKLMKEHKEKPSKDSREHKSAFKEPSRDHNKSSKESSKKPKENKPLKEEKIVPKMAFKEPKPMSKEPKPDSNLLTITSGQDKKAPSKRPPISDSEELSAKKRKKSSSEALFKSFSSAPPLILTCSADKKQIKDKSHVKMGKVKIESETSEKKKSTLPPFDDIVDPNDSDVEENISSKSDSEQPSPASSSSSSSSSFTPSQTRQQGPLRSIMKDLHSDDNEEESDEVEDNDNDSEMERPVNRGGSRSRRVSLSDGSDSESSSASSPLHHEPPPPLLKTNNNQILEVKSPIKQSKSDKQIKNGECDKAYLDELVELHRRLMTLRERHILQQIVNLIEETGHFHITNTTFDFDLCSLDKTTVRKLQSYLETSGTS
RanGTP-Impb inh – inhibitors of RanGTP-importin-beta interaction, primary screen, biochemical, FRET, CFP-Ran, YFP-importin-beta, homogeneous; cell-free CFP-Ran/YFP-importin-beta FRET ratio; actives 1.1% (n = 300,000); AID 2216, 2009; Ran GTPase (GTP-bound) - importin-beta complex; inhibition, % (no concentration beside the values);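 active = most replicates above 15%; inconclusive = exactly half above 15%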;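 also: 0% = DMSO wells and 100% = Ran loaded with GDP instead of GTP; wells of about 40 µL received 100 nL stock; the first replicate is given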
Calb FLC – C. albicans growth inhibition with fluconazole, primary screen, CaCi-2 strain, Alamar Blue fluorescence; C. albicans CaCi-2 (fluconazole-resistant clinical isolate) + fluconazole, 48 h; growth inhibition, % (no concentration beside the values); actives 0.57% (n = 300,000); AID 1979, 2009;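 active = most replicates above 75%; inconclusive = exactly half above 75%; inactive = most below 75%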;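 also: all wells also contain fluconazole at 8 µg/ml as a sub-toxic cotreatment; 0% = median of DMSO wells and 100% = median of geldanamycin control wells; wells of about 8 µL received 7.5 nL stock; the first replicate is given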
LANA-H2B inh – blockers of LANA interaction with H2A/H2B – biochemical, FP readout, HTS, primary screen; cell-free LANA-H2A/H2B peptide, fluorescence polarization; inhibition, % (test concentration not listed); actives 0.6% (n = 320,000); Protein LANA1 (Human herpesvirus 8 type P (isolate GK18)), Q9QR71; AID 2629, 2010; in the data active = inhibition mostly above about 10%, no sharp cut-off; inactive = mostly below about 6.7%;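 also: stock transfer was 7.5 nL into about 10 µL; 0% = median of vehicle wells and 100% = median of positive control wells; one replicate is shown; the record names a cut of 25% in any replicate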
* hit, by the source's call; ? = inconclusive; · = not tested or not shown; & = joins results of further samples.

SMILES | A1 inh | T cruzi repl | Vif TR-FRET | Beta apoptosis | MLL AF4-AF9 inh | RanGTP-Impb inh | Calb FLC | LANA-H2B inh
CN(C)C(CNC(=S)Nc1ccccc1)c1cccnc1 (stereo not drawn) | -0.1 | 2 | · | 2 | -2.0 | ? | -7 | -5.4
Cc1ccc(CSc2nc3ccccc3c(=O)n2Cc2ccco2)cc1 | 1.2 | 24 | -3% | 4 | · | 7.5 | -21 | -2.1
O=C1CC(c2ccccc2Cl)Cc2c1cnn2-c1nc2ccccc2s1 (stereo not drawn) | 0.3 | 46 | · | -1 | -14 | -2.5 | -7 | 1.3
CC(C)(C)NC(=O)C(c1ccccc1)N(Cc1cccs1)C(=O)c1csnn1 (stereo not drawn) | 0.9 | 16 | 0% | -3 | · | 2.5 | 21 | -2.6
COC(=O)c1cc(NC(=O)CC2NCCNC2=O)cc(C(=O)OC)c1 (stereo not drawn) | 0.4 | -9 | 2% | 1 | · | -1.1 | -9 | -2.9
COc1cccc(NC(=O)N2CCN(c3nnnn3-c3ccccc3)CC2)c1 | 1.2 | 6 | 65% | -8 | -16 | 2.5 | -18 | -1.9
COc1ccc(C(=O)CSc2nc3ccc([N+](=O)[O-])cc3[nH]2)cc1 | -0.1 | -17 | · | 7 | · | 1.7 | ? | -0.1
CCCCC1(C(=O)OCC)CC(CN2CCOCC2)OC1=O (stereo not drawn) | 0.4 | -13 | 15% | 11 | · | -2.5 | 7 | 3.0
COc1cc(C(=O)N2CCN(S(=O)(=O)c3cccc(F)c3)CC2)ccc1OCC(=O)N1CCOCC1 | 0.7 | -6 | · | -3 | -3.5 | 0.8 | -7 | ·
COc1cc(CCCN2C(=O)C(=O)NC[C@@H]2CCCCN)cc(OC)c1OC | 0.2 | -17 | · | -7 | -0.5 | -3.8 | -6 | -0.4
Cc1cc(Nc2nc3ccccc3nc2Cl)n(-c2ccccc2C)n1 | 0.0 | -1 | -4% | 4 | · | -4.1 | -4 | -3.9
O=C(CNC(=O)N1CC(=O)Nc2ccccc21)NCCc1cccc(F)c1 | 0.4 | -24 | -1% | 1 | 0.4 | 1.5 | 2 | 1.1
NC(=O)C1CCN(C(c2ccccc2Cl)c2nnnn2CC2CCCO2)CC1 (stereo not drawn) | 0.5 | -3 | 5% | -3 | · | 6.8 | -2 | -7.8
O=C(NCCNC(=O)c1cc(Cl)ccc1Cl)c1ccccn1 | ? | -12 | · | -3 | -2.2 | 2.0 | -4 | -0.6
COC(=O)CSc1nc(SCc2ccccc2Cl)nc2c1CCCC2 | -0.7 | 11 | 7% | -3 | · | -1.6 | 4 | 5.6
CCCN1CCN(C(=O)c2ccc(CS(=O)c3ccc(Cl)cc3)o2)CC1 (stereo not drawn) | 0.4 | 2 | · | -8 | -2.6 | 3.8 | 0 | 0.9
CCN(C(=O)c1ccc(Cl)cc1[N+](=O)[O-])c1ccccc1C | 0.0 | 20 | · | 4 | 5.0 | 19* | -1 | -8.5
c1n[nH]c(NC2=NCCC2)n1 | -0.5 | -4 | -1% | -6 | · | -8.4 | -21 | -0.5
COc1ccc(CSc2nc(C)cc(=O)[nH]2)cc1Br | -0.2 | 6 | 0% | -4 | · | -0.9 | -5 | 0.3
CC(OC(=O)COc1ccccc1[N+](=O)[O-])C(=O)Nc1ccc(N2CCOCC2)cc1 (stereo not drawn) | -0.7 | -8 | · | 1 | 0.3 | 0.2 | 5 | 1.8
O=C(c1cc(F)ccc1F)C1CCCN(C(=O)c2cccs2)C1 (stereo not drawn) | -0.4 | -1 | -7% | 0 | -2.6 | 1.4 | 4 | -2.1
CC(OC(=O)c1ccc(Cl)c(S(=O)(=O)Nc2ccc(F)cc2)c1)C(=O)NC(N)=O (stereo not drawn) | -0.2 | -10 | 13% | 0 | 40* | 0.2 | -2 | 0.0
COc1ccc(OC(C)C(=O)N2CCCc3ccccc32)cc1 (stereo not drawn) | -0.2 | 0 | · | -4 | -1.1 | 0.5 | 41 | -0.4
CCn1cc(C(=O)NCc2ccccc2Cl)cn1 | -0.5 | -8 | -8% | -5 | · | 2.3 | 12 | 3.4
CCc1cc(=O)oc2c(C)c(OCC(=O)N3CCC[C@@H]3C(=O)O)ccc12 | 0.5 | -10 | · | -6 | -1.2 | ? | -5 | 4.0
O=C1CN(C(=O)c2ccccc2C(=O)O)c2ccccc2N1 | 1.6 | 3 | · | 0 | -4.3 | 0.0 | -3 | 0.5
C=CCSc1nc2sc(C)c(C)c2c(=O)n1CC=C | 0.0 | 0 | -4% | 4 | · | 1.9 | -19 | -1.5
CN(c1ccc(C(=O)Nc2cccc(O)c2)cc1)S(=O)(=O)c1ccccc1 | 0.5 | 18 | · | 0 | 0.3 | -2.0 | 3 | -2.7
COc1ccc(CNC(=O)NCc2ccc(OC)c(OC)c2)cc1OC | -0.5 | 4 | 8% | · | · | 0.3 | -6 | 2.1
CC(C)N1CCc2c(sc(NC(=O)Cc3ccccc3)c2C(N)=O)C1 | 0.2 | -14 | · | -5 | 0.8 | 140* | 1 | 5.7
NC(=O)c1ccsc1NC(=O)COC(=O)C1=NNC(=O)CC1 | 0.9 | · | -9% | 0 | 1.2 | · | · | 1.7
COC(=O)C1=C(C)NC(=S)N(C(C)=O)C1c1ccc(OC)c(OC)c1 (stereo not drawn) | 1.2 | -10 | -6% | -9 | -4.8 | -0.4 | -15 | 2.3
CC(C)(C)c1ccc(-c2c(C(=O)O)c(C(=O)O)c3n2CSC3)cc1 | -0.1 | 0 | -1% | -2 | -30 | -2.5 | -1 | -3.0
COc1ccc(CNC(=O)c2cccc(S(=O)(=O)N3CCN(C)CC3)c2)cc1 | 0.2 | -3 | ? | · | -0.6 | ? | -13 | 7.7
COc1ccc2oc(C)c(C(=O)NN)c2c1 | 0.3 | -2 | 1% | · | -2.1 | -0.9 | 23 | 7.4
Cc1ccc(-c2nc(S(=O)(=O)c3ccc(C)cc3)c(N(C)C)o2)cc1 | -0.3 | -6 | 6% | 2 | -2.9 | 0.2 | -1 | 4.0
CC(C)CN(C(=O)COC(=O)c1cc2c(s1)CCC2)C1CCS(=O)(=O)C1 (stereo not drawn) | 0.1 | -1 | 22% | -9 | · | -0.5 | -32 | 0.0
COC(=O)CN1C(=O)C2(OCCCO2)c2cc(Br)ccc21 | 0.8 | -9 | -8%&-2% | 2 | · | 1.4 | -4 | 4.4
Cc1ccc2nc(CSc3nnc(Nc4ccccc4F)s3)cc(=O)n2c1 | -1.2 | 1 | 12% | -3 | 3.0 | 3.3 | 0 | 3.4
O=C(OCC#CCSc1nnc(-c2cccc3ccccc23)o1)c1ccc(F)cc1 | -1.1 | · | · | -4 | 7.1 | · | · | 1.5
O=c1oc2ccccc2c(Nc2ccccc2)c1CN1CCCCC1 | -0.4 | 0 | 1% | 5 | 5.5 | -1.2 | -6 | -5.9
CSc1nnc(C(C)(C)C)c(=O)n1/N=C/c1ccccc1 | 1.5 | 7 | -6% | -1 | 0.7 | -0.6 | -12 | 3.5
COc1ccc(S(=O)(=O)n2ccc(-c3ccc(OCCN(C)c4ccccn4)cc3)n2)cc1 | -1.2 | 23 | -3% | 16 | · | -2.4 | -2 | 2.5
COc1ccc(OCC(O)CN2CCN(c3ccc(OC)cc3)CC2)cc1 (stereo not drawn) | -0.4 | 5 | 3% | 1 | 4.3 | -5.0 | -1 | 2.1
CCCn1nnnc1NCc1c(Cl)cccc1Cl | -0.6 | -13 | 9% | 2 | -1.7 | -0.2 | 0 | -3.1
CN(C(=O)COC(=O)COc1ccc2ccccc2c1)c1c(N)n(Cc2ccccc2)c(=O)[nH]c1=O | -0.8 | · | · | 2 | 0.9 | · | · | -9.2
CN(c1cccc(NC(=O)COc2ccccc2)c1)S(C)(=O)=O | -0.2 | 13 | -4% | -3 | · | 2.2 | -6 | 0.0
O=C(Cc1ccc(-n2c(=S)[nH]c3ccccc3c2=O)cc1)N1CCC(N2CCCCC2)CC1 | -0.4 | -7 | ? | -6 | · | 2.7 | 0 | 2.1
COCCCNC(=O)c1cccn2c(=O)c3cc4ccccc4cc3nc12 | 0.3 | · | 65% | 21 | · | -9.3 | 40 | -0.3
C#CCOc1ccc(OC)cc1C(c1c(C)[nH][nH]c1=O)c1c(C)[nH][nH]c1=O | -0.9 | -1 | -4% | -9 | · | -0.5 | -4 | 2.7
Cn1c(=S)[nH]c2sc3c(c2c1=O)CCC(C(C)(C)C)C3 (stereo not drawn) | -0.7 | 6 | · | 23 | 1.4 | 0.3 | 0 | -3.5
CCOc1ccc(OCCn2c(=S)[nH]c3ccccc32)cc1 | 0.4 | 11 | -5% | -4 | 3.8 | -5.9 | 15 | -1.6
C/C(=N\NC(=S)NC1CCCCC1)c1ccc(O)cc1 | -0.2 | 4 | -2% | 9 | 6.1 | 0.2 | -2 | -0.4
c1ccc(Nc2ccccc2Nc2ccccn2)nc1 | -0.2 | 8 | 15% | -2 | -11 | -6.2 | -6 | 1.1
CCOc1ccc(N2C(=O)CC(N(CCc3ccc(OC)cc3)C(=O)/C=C/C(=O)O)C2=O)cc1 (stereo not drawn) | -0.7 | -6 | · | -4 | -0.6 | 2.3 | 3 | -4.6
NC(=O)c1ccsc1NC(=O)COC(=O)Cc1ccsc1 | -0.1 | -5 | 3% | -9 | · | 1.9 | -1 | -2.1
Cc1cccc(NC(=O)CN2CCN(CC(=O)NCc3ccc(Cl)cc3Cl)CC2)c1C | 1.1 | · | -16% | 1 | 8.9 | · | · | -8.6
CCOC(=O)C1(CCOc2ccccc2)CCN(Cc2ccc(O)cc2)CC1 | -0.7 | -5 | · | · | 1.6 | 8.9 | 9 | 2.9
CNc1nc(N)c([N+](=O)[O-])c(Nc2cccc(F)c2)n1 | 0.5 | -10 | -9% | 94* | 3.2 | -0.7 | 15 | 0.9
Cc1noc(NS(=O)(=O)c2ccc(N/C=C\C(=O)c3cccs3)cc2)c1C | -3.8 | -7 | 18% | -2 | -0.7 | -7.1 | -3 | 1.7
Later entries
SMILES | A1 inh | T cruzi repl | Vif TR-FRET | Beta apoptosis | MLL AF4-AF9 inh | RanGTP-Impb inh | Calb FLC | LANA-H2B inh
CCCCCOc1ccc(NC(=O)CSc2cccc3cccnc23)cc1 | 0.4 | 41 | -13% | 7 | -2.3 | -0.1 | 15 | 2.5
COC(=O)NC1c2ccccc2Oc2ccccc21 | -0.4 | -17 | -3% | -2 | -3.4 | 3.1 | 4 | 5.3
COc1ccc(OCC(O)CN2CCNCC2)cc1 (stereo not drawn) | -0.4 | 0 | · | -9 | -3.6 | 2.6 | -5 | 2.3
Cc1ccc2c(CC(=O)NC3CCCc4ccccc43)coc2c1 (stereo not drawn) | 0.0 | -12 | · | 6 | · | 4.1 | 2 | -4.5

Source: PubChem
